Assay outcomes: PubChem, several laboratories
GALR2 ag: GALR2 receptor agonists, primary screen, cell-based; activation, %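 (tested at 5 µM)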; GALR2-expressing cells, agonist activation read-out; 140,000 compounds, 0.48% hits; Galanin receptor type 2 (Homo sapiens), O43603; AID 803, 2007;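 active means above mean plus 3 SD of all compounds, about 5% in these data, not always enough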;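 further: 0% = vehicle buffer wells and 100% = reference agonist at full effect; tested in CHO reporter cells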
RGS16-Gao HTS: modulators of RGS16 binding to Galphao, primary screen, biochemical, human proteins, multiplexed bead flow cytometry | Regulator of G-protein signaling 16 (Homo sapiens) + Guanine nucleotide-binding protein … | bead-based flow cytometry RGS16-Galphao binding, fluorescence; actives lie on both sides | binding response (% of control), % at 10 µM | 220,000 compounds, 0.38% hits | AID 1441, 2008;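 active means below 25% or above 175%, edge rows of some plates excepted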;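 further: Galphao activated by GDP with aluminum fluoride before binding; 100% = wells without compound and 0% = beads without RGS; some results beyond the cut were filed as inactive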
HSV augment: enhancers of HSV replication in host cells, fold increase, host cell viability | maximum fold increase | AID 1956, 2009 | HSV replication augmentation in cells | 220,000 compounds, 0.005% hits;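 active means peak rise of 1.5-fold or more in the series; tested in PC3 cells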;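 further: first round at 10 µM; read as green reporter fluorescence; hits show the peak of a series up to 25 µM; 1 = signal of infected wells without compound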
PKD1 inh: inhibitors of human PKD1 kinase, biochemical, fluorescence polarization; PKD1 kinase fluorescence polarization assay; 200,000 compounds, 0.056% hits; Serine/threonine-protein kinase D1 (Homo sapiens), Q15139; inhibition, %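 (about 10 µM by stock and volumes)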; AID 797, 2007;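 active means inhibition of 50% or more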;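 further: controls were vehicle for no effect and a reference inhibitor for full effect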
Target sequence (Q15139 whole entry, looked up): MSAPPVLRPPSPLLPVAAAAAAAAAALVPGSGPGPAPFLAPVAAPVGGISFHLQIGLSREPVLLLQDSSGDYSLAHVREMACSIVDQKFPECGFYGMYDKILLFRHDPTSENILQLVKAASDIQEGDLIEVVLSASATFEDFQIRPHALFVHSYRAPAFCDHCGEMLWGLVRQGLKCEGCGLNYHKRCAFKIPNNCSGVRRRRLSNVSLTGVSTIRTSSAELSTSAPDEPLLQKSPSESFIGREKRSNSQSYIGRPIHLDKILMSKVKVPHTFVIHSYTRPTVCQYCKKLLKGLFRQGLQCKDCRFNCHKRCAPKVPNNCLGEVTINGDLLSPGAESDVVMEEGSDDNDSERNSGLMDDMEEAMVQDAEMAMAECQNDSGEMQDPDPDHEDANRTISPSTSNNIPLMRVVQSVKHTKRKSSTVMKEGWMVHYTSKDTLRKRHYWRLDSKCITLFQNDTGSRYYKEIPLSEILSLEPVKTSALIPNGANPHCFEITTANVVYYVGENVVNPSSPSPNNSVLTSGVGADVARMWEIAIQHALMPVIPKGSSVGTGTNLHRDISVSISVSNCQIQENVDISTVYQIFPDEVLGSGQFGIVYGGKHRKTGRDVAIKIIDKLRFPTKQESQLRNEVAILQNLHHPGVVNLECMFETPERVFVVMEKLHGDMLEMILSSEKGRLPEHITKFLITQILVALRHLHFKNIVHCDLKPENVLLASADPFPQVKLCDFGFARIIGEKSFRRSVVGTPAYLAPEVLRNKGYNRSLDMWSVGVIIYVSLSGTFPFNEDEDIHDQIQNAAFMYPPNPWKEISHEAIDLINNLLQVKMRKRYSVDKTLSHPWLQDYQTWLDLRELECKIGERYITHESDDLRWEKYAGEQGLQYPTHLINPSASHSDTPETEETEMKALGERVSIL
INS promoter inh: inhibitors of insulin promoter-driven GFP, primary screen, imaging, TRM-6 cells (human fetal islet line), eGFP reporter, cell count; reporter expression induced with tamoxifen; inhibition, % at 2 µM; 130,000 compounds, 0.9% hits; AID 1273, 2008;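 active means inhibition above the mean plus 3 SD, with well images judged a real hit on visual review, cut at about 60% in these data, passing the limit was not always enough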
INS promoter inh cell count: further read-out of INS promoter inh, marked with its call; normalized cell count, %; measured here: cell count, toxicity; reference of the scale not given here;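 cells exposed to compound for 48 h; stained nuclei by imaging scaled within each plate; lower means fewer cells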
HSV augment primary fold: recorded beside HSV augment, whose call it bears; fold increase; compound at 10 µM; measured here: primary screen fold increase 10 uM; tested in PC3 cells;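 GFP signal in the first replicate; 1 = infected wells without compound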
An asterisk follows results filed as active; i = inactive; nt = no result given. Not a hit list. Share with any hit: about 1.3%.

No.	canonical_smiles	GALR2 ag	RGS16-Gao HTS	HSV augment	HSV augment primary fold
1	O=C(/C=C\c1ccc2c(c1)OCO2)NC1(C(=O)Nc2ccc3c(c2)OCO3)CCCCC1	1.0	109	i	1.1
2	CCN(C(=O)CN1CCN(C)CC1)c1cccc2ccccc12	-0.9	101	i	0.93
3	CCOC(=O)C1CCN(C(=O)CCc2c(C)nc3cc(-c4ccccc4)nn3c2C)CC1	-3.5	99	i	1
4	CCOc1cc(/C=C/c2nc3cc(C)c(C)cc3s2)ccc1OCC(=O)N1CCOCC1	1.1	39	i	0.82
5	COc1ccc(C2C3=C(CC(C)(C)CC3=O)Oc3ncn(CC(C)C)c(=N)c32)cc1 (centres undefined)	-1.1	101	i	0.98
6	O=C1C(C=NCCN2CCOCC2)=C(O)c2ccccc21	-0.1	103	i	0.87
7	Cn1c(Cn2c(=O)sc3ccccc32)nnc1SCc1cccc(F)c1	-0.6	96	i	1.1
8	NC(=O)c1ccccc1Nc1nc2nc3ccccc3c(=O)n2cc1Br	nt	97	i	0.97

No.	PKD1 inh	INS promoter inh	INS promoter inh cell count
1	-8	22	146
2	8	-7	127
3	-4	nt	nt
4	-1	7	152
5	-7	-12	114
6	-12	-31	123
7	-6	nt	nt
8	nt	nt	nt

Next part.
No.	canonical_smiles	GALR2 ag	RGS16-Gao HTS	HSV augment	HSV augment primary fold
9	C/C(Cn1nnc([N+](=O)[O-])n1)=N\NC(=O)c1ccc(O)cc1O	-0.2	100	i	0.83
10	Cc1nc2ncccn2c1-c1csc(Nc2ccc(O)cc2)n1	nt	100	i	0.73
11	Cc1csc(=O)n1CCC(=O)O	-1.9	104	i	0.9
12	COc1ccc(Cn2nnnc2C(c2cc3cc(C)ccc3[nH]c2=O)N2CCOCC2)cc1 (centres undefined)	-1.8	99	i	0.93
13	O=c1c(Cl)c(NCC2CCCO2)cnn1C12CC3CC(CC(C3)C1)C2 (centres undefined)	nt	100	i	1
14	O=C(Nc1ccccn1)C(=O)N1CCCCC1	-0.9	59	i	1
15	CCc1nnc(NC(=O)c2ccc3c(c2)C(=O)N(CC)C3=O)s1	-0.7	100	i	0.86
16	COC(=O)Cc1cc(=O)[nH]c(/N=C(\N)Nc2ccc(C(C)C)cc2)n1	nt	106	i	0.93

No.	PKD1 inh	INS promoter inh	INS promoter inh cell count
9	0	23	117
10	-4	nt	nt
11	-7	nt	nt
12	-8	nt	nt
13	-6	-60	66
14	-11	47	194
15	0	0	123
16	-7	nt	nt

5 compounds already listed, sorted by the value under GALR2 ag, low to high.
#	compound	GALR2 ag	RGS16-Gao HTS	HSV augment primary fold	PKD1 inh
11	Cc1csc(=O)n1CCC(=O)O	-1.9	104	0.9	-7
12	COc1ccc(Cn2nnnc2C(c2cc3cc(C)ccc3[nH]c2=O)N2CCOCC2)cc1 (centres undefined)	-1.8	99	0.93	-8
14	O=C(Nc1ccccn1)C(=O)N1CCCCC1	-0.9	59	1	-11
15	CCc1nnc(NC(=O)c2ccc3c(c2)C(=O)N(CC)C3=O)s1	-0.7	100	0.86	0
9	C/C(Cn1nnc([N+](=O)[O-])n1)=N\NC(=O)c1ccc(O)cc1O	-0.2	100	0.83	0

Going on with the list:
No.	canonical_smiles	GALR2 ag	RGS16-Gao HTS	HSV augment	HSV augment primary fold
17	COc1ccc(OC)c(N2CC(O)(c3ccccc3)[N+]3=C2SCCC3)c1 (centres undefined)	nt	104	i	0.7
18	Cc1ccc(C)n1-c1ccccc1N1CCCCC1	nt	91	nt	nt
19	CCNc1nc(NCC)n2c(SCC(=O)Nc3ccc(F)cc3[N+](=O)[O-])nnc2n1	nt	97	i	0.94
20	CCc1ccc2[nH]c(=O)c(CN(CCN(C)C)C(=O)Nc3ccccc3OC)cc2c1	-4.1	101	i	1.1
21	Cc1csc2ncc(C(=O)Nc3ccc(C(F)(F)F)cc3)c(=O)n12	-0.5	103	i	0.91
22	Cc1cc(NC(=O)CSc2nncn2N)no1	nt	101	i	0.95
23	O=C(Oc1cc2oc(=O)c3c(c2cc1Cl)CCCC3)c1ccco1	3.1	95	i	0.81
24	O=C(CSc1nnc2sc3ccccc3n12)NCc1ccco1	1.2	99	i	0.85

No.	PKD1 inh	INS promoter inh	INS promoter inh cell count
17	-5	nt	nt
18	-6	-79	68
19	3	-33	76
20	11	-4	97
21	-2	nt	nt
22	5	38	132
23	-1	-6	43
24	-11	45	95

New compounds follow:
No.	canonical_smiles	GALR2 ag	RGS16-Gao HTS	HSV augment	HSV augment primary fold
25	NS(=O)(=O)c1ccc(NC(=O)COC(=O)CCC2CCCCC2)cc1	-2.6	91	i	1
26	CCOc1ccc(-n2c(=O)cc(N3CCN(c4ccccc4)CC3)[nH]c2=O)cc1	-2.3	104	i	1
27	N#Cc1cnc(NOCc2ccc(Cl)cc2)nc1	nt	103	i	0.88
28	Cc1ccc(Nc2nc(CSc3n[nH]c(N)n3)cs2)cc1	nt	92	i	0.98
29	CCN(CC)CCCNC(=O)C(C)n1nc(C)c2sc3ccccc3c2c1=O (centres undefined)	-1.0	92	i	1
30	O=C(Nc1ccc(NC(=S)NC(=O)c2ccccc2Cl)cc1)c1cccc(Cl)c1	-1.4	nt	i	0.89
31	Cc1[nH]c2ccc(-c3nnc(SCC(=O)c4ccccc4F)o3)cc2c1C	0.4	100	i	0.86
32	COc1ccc(C(=O)Nc2cc(C)cc(C)c2)cc1S(=O)(=O)N1CCOCC1	-2.0	102	i	0.95

No.	PKD1 inh	INS promoter inh	INS promoter inh cell count
25	-8	nt	nt
26	-6	-120	93
27	7	11	91
28	nt	nt	nt
29	1	-253	116
30	-2	23	54
31	6	nt	nt
32	0	-24	94

The results go on.
No.	canonical_smiles	GALR2 ag	RGS16-Gao HTS	HSV augment	HSV augment primary fold
33	CCOC(=O)c1c(-c2ccc(OC)cc2)csc1NC(=O)CSc1nnc(C)c(=O)[nH]1	nt	100	i	0.88
34	C/C=C/C=N/Nc1nc(C)cc(=O)[nH]1	nt	102	i	0.81
35	O=C(COc1cccc(C(F)(F)F)c1)N1CCN(c2ccc(O)cc2)CC1	nt	98	i	0.86
36	CN(NC(=O)c1ccccc1)c1nc2ccccc2nc1C(F)(F)F	-0.4	114	i	0.66
37	CCOC(=O)N1CCN(c2cc3[nH]c(=S)[nH]c3cc2F)CC1	-0.6	98	i	0.82
38	N#Cc1c(N)nc2c(c1N)CC(COc1ccccc1)O2 (centres undefined)	-1.3	105	i	0.82
39	CO/N=C/C(C#N)c1ncc(C(F)(F)F)cc1Cl (centres undefined)	-0.5	100	i	0.91
40	Cc1cccc(C)c1OCC(=O)N=Nc1c(O)[nH]c2ccc(Br)cc12	-1.4	73	nt	nt

No.	PKD1 inh	INS promoter inh	INS promoter inh cell count
33	-11	nt	nt
34	1	-6	85
35	3	7	161
36	-11	11	118
37	-2	14	84
38	-7	nt	nt
39	3	9	154
40	0	-42	147

A different layout for 3 compounds above.
entry	Compound	GALR2 ag	RGS16-Gao HTS	HSV augment	HSV augment primary fold	PKD1 inh	INS promoter inh	INS promoter inh cell count
33	CCOC(=O)c1c(-c2ccc(OC)cc2)csc1NC(=O)CSc1nnc(C)c(=O)[nH]1	nt	100	i	0.88	-11	nt	nt
34	C/C=C/C=N/Nc1nc(C)cc(=O)[nH]1	nt	102	i	0.81	1	-6	85
35	O=C(COc1cccc(C(F)(F)F)c1)N1CCN(c2ccc(O)cc2)CC1	nt	98	i	0.86	3	7	161

The results go on.
No.	canonical_smiles	GALR2 ag	RGS16-Gao HTS	HSV augment	HSV augment primary fold
41	CN1CCN(C(=O)C23CCC(C)(c4nc5ccccc5nc42)C3(C)C)CC1 (centres undefined)	0.5	102	i	0.88
42	CC1CN(c2ncnc3c2cnn3-c2ccc(Cl)cc2)CC(C)O1 (centres undefined)	-2.2	97	i	0.96
43	Clc1cccc(CSc2nccn2-c2ccccc2)c1	-2.8	100	i	0.88
44	O=C(O)C1C2C=CC(C2)C1C(=O)Nc1ccc2c(c1)OCCO2 (centres undefined)	-1.5	100	i	0.91
45	Cc1ccc(Nc2nc(CSc3nnnn3-c3ccccc3)cs2)cc1	-5.0	97	i	1.1
46	CCOc1ccc(N(CC(=O)Nc2c(C)cccc2C)S(=O)(=O)c2c(C)[nH]c(=O)[nH]c2=O)cc1	nt	96	i	1
47	N#CC1=C(N)Oc2n[nH]c(-c3ccc(F)cc3)c2C1c1cccc(OC(=O)N2CCOCC2)c1 (centres undefined)	-1.3	100	i	1
48	COc1ccccc1CNC(=O)c1ccc(CS(=O)(=O)c2ccccc2OC)o1	-2.7	95	i	0.86

No.	PKD1 inh	INS promoter inh	INS promoter inh cell count
41	-5	-24	117
42	7	nt	nt
43	-13	19	56
44	-4	-31	109
45	3	10	123
46	nt	nt	nt
47	5	-50	161
48	4	nt	nt

Additional records.
No.	canonical_smiles	GALR2 ag	RGS16-Gao HTS	HSV augment	HSV augment primary fold
49	CCOC(=O)c1c(NC(=O)CN2C(=O)NC(C)(c3ccc(OC(F)F)cc3)C2=O)sc(C)c1C (centres undefined)	1.6	109	i	0.83
50	O=C(COc1cc(F)ccc1[N+](=O)[O-])Nc1ccc(N2CCOCC2)cc1	nt	100	i	0.93
51	COc1cccc(C(O)Cc2nc3ccccc3n2C)c1OC (centres undefined)	nt	102	i	0.94
52	CCC(C(=O)Nc1cc(Cl)c(OC)cc1OC)c1ccccc1 (centres undefined)	nt	105	i	0.86
53	CCOC(=O)C(C)n1cnc2c(oc3ccccc32)c1=O (centres undefined)	-1.6	101	i	1
54	Cc1c(NC(=O)CSc2nc3c(cnn3-c3ccccc3)c(=O)[nH]2)c(=O)n(-c2ccccc2)n1C	-1.5	102	i	0.96
55	Cc1ccc(CNC(=O)CO/N=C/c2ccc(C(C)(C)C)cc2)cc1	0.2	108	i	0.99
56	Cc1c(C(=O)O)oc2ccc(S(=O)(=O)NCc3ccc(F)cc3)cc12	-2.7	102	i	1.1

No.	PKD1 inh	INS promoter inh	INS promoter inh cell count
49	-1	0	58
50	7	nt	nt
51	-6	nt	nt
52	-2	nt	nt
53	-5	25	95
54	11	-6	128
55	8	4	113
56	-9	nt	nt

(continued)
No.	canonical_smiles	GALR2 ag	RGS16-Gao HTS	HSV augment	HSV augment primary fold
57	Cc1ncc(N=Nc2ccccc2Cl)c(-c2ccccc2)n1	-1.4	104	i	0.99
58	Cc1ccc(N(C(C)C(=O)N2CCOCC2)S(C)(=O)=O)cc1C (centres undefined)	nt	102	i	0.9
59	CCCOC(=O)CCc1n[nH]c(=O)[nH]c1=O	-2.0	95	i	0.94
60	Cc1noc(C)c1COC(=O)COc1ccc2c(C)cc(=O)oc2c1	-0.4	101	i	0.78
61	COc1ccc2c(c1)CCCC21SC(NC(C)=O)=NN1C(C)=O (centres undefined)	nt	103	i	0.97
62	COc1ccc(NC(=O)C2CCCN2S(=O)(=O)c2ccc(C)cc2)cc1 (centres undefined)	-2.0	102	i	0.76
63	Cc1ccc(C(=O)NCC(=O)OCC(=O)c2cc(C)n(Cc3ccco3)c2C)cc1	-0.4	68	i	1.4
64	COC(=O)c1ccccc1NC(=O)c1nc2nc(C)cc(C(F)F)n2n1	-0.6	100	i	0.95
65	Cc1ccccc1NS(=O)(=O)c1ccc(OCC(=O)NCc2cccnc2)cc1	-0.9	104	i	0.89
66	CCOC(=O)C1=C(C)N(c2ccccc2)C(=O)NC1c1cccc([N+](=O)[O-])c1 (centres undefined)	-0.2	129	i	0.92

No.	PKD1 inh	INS promoter inh	INS promoter inh cell count
57	-7	0	110
58	2	nt	nt
59	2	-24	123
60	0	nt	nt
61	0	nt	nt
62	1	0	101
63	5	nt	nt
64	-12	33	60
65	10	nt	nt
66	6	7	79
